AmpC inh no det: blocks E. coli AmpC beta-lactamase in absence of detergent | P00811 | AmpC nitrocefin hydrolysis, absorbance 480 nm, no detergent; potencies from a single point are estimates | Potency, µM (highest dose often 28.7 µM), for the others: at the highest dose activity change, negative = inhibition | hit rate 1.8% among 71,000 | AID 585; active = falling curve, for most hits resting on a single point; inconclusive = weak or doubtful change; inactive = flat or rising curve; also: % of control where 0% means no effect; about half of the hits show no inhibition at the top dose; a quarter of the inactives give rising signals
Target sequence (P00811 whole entry, looked up): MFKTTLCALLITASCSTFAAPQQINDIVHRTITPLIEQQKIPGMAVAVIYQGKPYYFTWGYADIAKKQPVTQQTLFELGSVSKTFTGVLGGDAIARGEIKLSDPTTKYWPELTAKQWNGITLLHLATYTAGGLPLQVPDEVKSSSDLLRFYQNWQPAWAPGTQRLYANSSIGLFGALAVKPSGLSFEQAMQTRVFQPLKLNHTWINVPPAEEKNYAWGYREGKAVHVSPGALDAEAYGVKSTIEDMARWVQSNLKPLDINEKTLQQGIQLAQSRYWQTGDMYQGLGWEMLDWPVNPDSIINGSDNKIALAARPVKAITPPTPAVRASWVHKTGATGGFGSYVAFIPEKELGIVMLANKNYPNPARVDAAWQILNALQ
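Enzyme, pH 7.0 phosphate. Compound titrations were pre-incubated with AmpC for 15 min at room temperature before nitrocefin (stock 800 uM) addition; product formation was recorded at 480 nm every 20 s for 4 min.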
* = called active by the depositor; & = joins results of further samples; [ ] = another dose, or the depositor's remark. Potency is read from the fitted curve at half-maximal effect. This is a subset; count on the stated rates, not on these rows.

SMILES	AmpC inh no det
CCCC(=O)NC(C)C(c1cccs1)N1CCN(C)CC1 (centres undefined)	3.3%
CCN1CCN(Cc2ccc(NC(=O)Nc3ccc(OC)cc3)cc2)CC1	3.98µM*[single pt active]
Cc1ccc(SCCNC(=O)CN2C(=O)c3ccccc3S2(=O)=O)cc1	-2.6%
COc1cc(NC(=O)CS(=O)(=O)c2ccc(C)cc2)cc(OC)c1OC	-4.5%
Cc1nc2cc(C(=O)NCCN3CCOCC3)ccc2n1-c1ccc(F)cc1F	59.8%
O=C(Nc1ccc(F)cc1Cl)c1ccc2c(=O)n3c(nc2c1)CCCCC3	13.1%
Cn1c(=O)n(-c2cccc(Cl)c2)c(=O)n1C	0.0%
Cc1noc(/C=C/c2ccco2)c1S(=O)(=O)N1CCC(C(=O)N2CCc3ccccc3C2)CC1	23.3%
C=CCOc1cccc(C2/C(=C(/O)c3ccc(Cl)cc3)C(=O)C(=O)N2CCN2CCOCC2)c1 (centres undefined)	27.7%
COc1ccc2cc3c(N)c(C(=O)NCc4ccco4)sc3nc2c1	17.9%
O=C(CSc1nc2c([nH]c3ccccc32)c(=O)n1-c1cccc(Cl)c1)N1CCOCC1	7.0%
CN(C)S(=O)(=O)c1ccc(C(=O)N2CCCC2c2nc3ccccc3s2)cc1 (centres undefined)	92.5%
Cc1cccc2[nH]c(-c3ccc(NC(=O)c4ccco4)cc3)nc12	4.4%
O=C(NC1CCCCC1)c1ccc(S(=O)(=O)NCc2ccco2)cc1	0.9%
O=C(OC(C(=O)NCc1cccs1)c1ccccn1)c1cccs1 (centres undefined)	-7.2%
O=c1oc2cc(N=Cc3ccc4c(c3)OCO4)ccc2c2ccccc12	-2.3%[5.75 µM]
COc1ccc(CN2CCCC(C(=O)N(C)Cc3ccccc3)C2)cc1OC (centres undefined)	-9.5%
Cc1ccc(Cn2c(SCC(=O)Nc3cccc(C)n3)nc3c2c(=O)n(C)c(=O)n3C)cc1	57.4%
COCC(=O)N1CCC[C@@]2(CCN(C(=O)Nc3cccc(F)c3)C2)C1	7.7%
CC(=O)c1c(C)oc2ccc(NS(=O)(=O)c3ccc(O)c(C(=O)O)c3)cc12	-13.9%
CC[C@H]1CN2CCc3cc(OC)c(OC)cc3[C@H]2C[C@@H]1C[C@H]1NCCc2c1[nH]c1ccc(O)cc21	13.2%[5.75 µM]
COCCOC(=O)c1c(N)n(Cc2ccccc2)c2nc3ccccc3nc12	92.1%
COc1cccc(Nc2nnc(SCC(=O)N3CCOCC3)s2)c1	12.2%
CCn1c(SCC(=O)Nc2cc(NC(C)=O)ccc2OC)nnc1-c1ccncc1	-6.2%
NC1=NCCCC1	17.6%
CC12CCC(c3c(C(=O)O)nn(-c4ccccc4)c31)C2(C)C (centres undefined)	28.8%
O=C1CCCC/C1=C\Nc1ccccc1C(=O)O	-7.7%
CC1(C)[C@@H]2CC[C@]1(C)CN(CCC[N+](C)(C)C)C2	-5.5%[5.75 µM]
O=S(=O)(c1ccc2c(c1)OCCO2)N1CCN(c2nc3ccccc3s2)CC1	44.3%
Cc1nnc(SCC(=O)Nc2ccccc2NC(=O)CSc2nnc(C)s2)s1	-13.3%
Cc1cc(C)cc(Nc2ncc3c(n2)CC(c2ccco2)CC3=O)c1 (centres undefined)	17.5%
c1ccc(CNc2nc(-c3ccoc3)nc3ccccc23)cc1	-17.5%
C=CCNC(=O)C1CC(=O)N(c2ccc(OCC(=O)Nc3cccc(OC)c3)cc2)C1 (centres undefined)	15.2%
CCOC(=O)c1sc(=S)n(-c2cc(OC)ccc2OC)c1N	3.5%
COc1ccccc1Nc1nc(-c2cccs2)cs1	7.94µM*[single pt active]
COCCn1c(SCC(=O)c2cccc(OC)c2)nnc1-c1ccco1	23.4%
CCN1C(=O)/C(=C2/Sc3ccc(OC)cc3N2C)SC1=Nc1cccc(O)c1	-8.8%
CCN(CCCNC(=O)CNC(=O)Cn1cnc2ccccc2c1=O)c1ccccc1	80.2%
CCc1c(C)sc(NC(=O)C2CCCCC2C(=O)O)c1C(N)=O (centres undefined)	-14.8%
c1ccc2c(c1)OCC(c1nn3cnnc3s1)O2 (centres undefined)	-12.3%
O=C(Nc1ccc(S(=O)(=O)N2CCOCC2)cc1)c1ccc(Cl)s1	-9.6%
O=c1c(-c2cccs2)nc2cnc(Oc3ccccc3)nc2n1C1CC1	32.5%
CS(=O)c1ccc(-c2nc(-c3ccc(F)cc3)c(-c3ccncc3)[nH]2)cc1 (centres undefined)	73.4%&97.7%
O=C(O)CCC/C=C\C[C@H]1[C@@H](/C=C\[C@@H](O)C2Cc3ccccc3C2)[C@H](F)C[C@H]1O	14.0%
CCC(=O)Nc1nc2ccc3nc(C)sc3c2s1	63.8%

The last three entries of the section before open the next one:
SMILES	AmpC inh no det
CS(=O)c1ccc(-c2nc(-c3ccc(F)cc3)c(-c3ccncc3)[nH]2)cc1 (centres undefined)	73.4%&97.7%
O=C(O)CCC/C=C\C[C@H]1[C@@H](/C=C\[C@@H](O)C2Cc3ccccc3C2)[C@H](F)C[C@H]1O	14.0%
CCC(=O)Nc1nc2ccc3nc(C)sc3c2s1	63.8%
c1ccc(C(c2nnnn2Cc2cccs2)N2CCN(C3CCCC3)CC2)cc1 (centres undefined)	20.7%
COc1ccc2c(c1OC)CN(C)CCc1cc3c(cc1C(O)C2)OCO3 (centres undefined)	-4.4%
O=C(Nc1ccc2c(c1)CCC2)C1CCCO1 (centres undefined)	-1.0%
Cc1ccc(S(=O)(=O)N(C)c2nonc2C)cc1	-6.2%
Cc1ccc(S(=O)(=O)N2C(=O)CCC2C(=O)N2CCN(C)CC2)cc1 (centres undefined)	-1.1%
CCC(=O)N1CCc2cc(S(=O)(=O)NCCC(=O)Nc3ccccc3C)ccc21	10.7%
COCC(=O)NC1CCN(C(=O)NCc2ccccc2)CC1	-8.2%
CCCc1ncc(C(O)c2ccc(OC)cc2)n1C (centres undefined)	-2.3%
Cc1c(C(=O)N2CCCC2)oc2c1-c1[nH]ncc1CC2	3.98µM*[single pt active]
C/C(=N/NS(=O)(=O)c1ccc(C)cc1)P(=O)(O)O	7.4%[5.75 µM]
COc1ccc(CN2C(=O)CC(=O)NC2=O)cc1	-8.0%
O=C(NCCc1ccccc1)C1CCN(S(=O)(=O)c2cccnc2)CC1	17.8%
Nc1ccncc1	26.1%&-2.4%
O=C(O)C(Cc1cccs1)C(=O)O	-0.1%[5.75 µM]
COc1ccccc1-c1ccc2ncnc(NCc3ccccc3)c2c1	4.2%

6 of these compounds in another layout:
Structure | AmpC inh no det
COc1ccc2c(c1OC)CN(C)CCc1cc3c(cc1C(O)C2)OCO3 (centres undefined) | -4.4%
O=C(Nc1ccc2c(c1)CCC2)C1CCCO1 (centres undefined) | -1.0%
Cc1ccc(S(=O)(=O)N(C)c2nonc2C)cc1 | -6.2%
Cc1ccc(S(=O)(=O)N2C(=O)CCC2C(=O)N2CCN(C)CC2)cc1 (centres undefined) | -1.1%
CCC(=O)N1CCc2cc(S(=O)(=O)NCCC(=O)Nc3ccccc3C)ccc21 | 10.7%
COCC(=O)NC1CCN(C(=O)NCc2ccccc2)CC1 | -8.2%

Following part
SMILES	AmpC inh no det
CC(C)(C#CCN1CCCC1)OCCC#N	6.9%
COc1ccc(Br)cc1CN1CCN(CCO)CC1	-2.5%
COC(=O)[C@@]1(Cc2ccc(OC)cc2)[C@H]2c3cc(C(=O)N4CCCC4)n(CCc4c[nH]c5ccc(O)cc45)c3C[C@H]2CN1C(=O)c1ccccc1	137.0%
CC(=O)c1ccc(N2CCN(C(=O)c3cc(C)on3)CC2)cc1	8.5%
Cc1ccc(NS(=O)(=O)c2cccc(C(=O)O)c2)c(C)c1	-7.7%
CCn1cc(C(=O)OCC(=O)OC2CC(C)CCC2C(C)C)c(=O)c2ccc(C)nc21 (centres undefined)	106.5%
CC(C)(C)NC[C@H](O)COc1cccc2c1CCCC2=O	-2.4%&-13.7%[12.8 µM]
O=C(CCN1CCN(c2ccc(Cl)cc2)CC1)Nc1ccccc1F	83.9%
CS(=O)(=O)N1CCC(C(=O)Nc2ccc(Cl)c(C(F)(F)F)c2)CC1	34.0%
c1ccc(-c2noc(-c3ccc4ccccc4c3)n2)cc1	-17.9%
O=C(CCNS(=O)(=O)c1cccs1)NCc1ccco1	-8.5%
Cc1cc2ccccc2c(=O)n1CC(=O)NCC(=O)N1CCN(c2ccccc2F)CC1	29.9%
O=C(CSc1ccc(-c2ccc(F)cc2)nn1)N1CCCCC1	15.7%
Cc1cc(NC(=O)Cn2nc(C(F)(F)F)c3c2CCCC3)no1	-18.2%
COc1ccccc1NC(=O)C(O)C(O)C(=O)Nc1ccccc1OC (centres undefined)	-10.3%
Cc1cccc(-n2nnc(C(=O)NCc3ccc4c(c3)OCO4)c2N)c1	-14.4%
CCOC(=O)Cc1cn2c(=O)cc(CSCC(=O)Nc3ccc(C)c(C)c3)nc2s1	9.1%
CCCCn1c(O)c(C(C)=Nc2c(C)n(C)n(-c3ccccc3)c2=O)c(=O)[nH]c1=O	5.3%
COC(=O)[C@@]1(Cc2ccc(OC)cc2)[C@H]2c3cc(C(=O)N4CCCC4)n(Cc4ccc(OC)c(OC)c4)c3C[C@H]2CN1C(=O)c1ccccc1	153.0%
Cc1cc(N2CCN(c3ccccc3)CC2)n2c(n1)nc1ccccc12	122.9%
CCOC(=O)c1nnn(-c2nonc2N)c1-c1cccs1	0.7%
CCCn1nnnc1NCc1cccn1C	72.4%
CCNS(=O)(=O)c1ccc(NC(=O)c2cc(C(F)(F)F)nn2C)cc1	0.6%
CC(C)Cc1nnc(NC(=O)CCN2C(=O)c3ccccc3C2=O)s1	58.4%
O=C1CC(c2ccccc2)C(=O)N1c1cccc(O)c1 (centres undefined)	-2.3%
O=c1c2ccccc2nc(N2CCCC2)n1-c1ccc(Cl)cc1	18.2%
CCC(C)(C(=O)NC1CCCCC1)N(C(=O)c1cnccn1)c1c(C)n(C)n(-c2ccccc2)c1=O (centres undefined)	24.1%
CC(C)Cn1c(N)c(C(=O)COC(=O)c2ccc3ccccc3n2)c(=O)n(C)c1=O	112.0%
CCOC(=O)c1sc(C)c2c1NC1(CCCCC1)NC2=O	-3.1%
COc1ccc(NC(=O)c2oc3ccccc3c2NC(=O)COc2ccccc2OC)c(OC)c1	-1.5%
CCOC(=O)c1ccc(-n2c(-c3ccco3)nc3ccccc3c2=O)cc1	47.0%
CC(=O)Nc1c(O)nc(SCC(=O)N2CCN(c3ccc(F)cc3)CC2)[nH]c1=O	-4.1%
CC(C)OC(=O)CSc1nc2cccnc2n1C1CCCCC1	32.3%
COc1cccc(Cn2c(=O)c(-c3ccccc3)nc3cncnc32)c1	99.7%
CC1CC(C)(C)NC(=O)O1 (centres undefined)	3.4%
O=S(=O)(NC1CCCC1)c1cccc(S(=O)(=O)N2CCC(n3nnc4ccccc43)CC2)c1	-10.7%
Cn1c(-c2ccccc2)cc2c3no[n+]([O-])c3ccc21	-19.6%
C=CCSC1=NC(N)=C(C#N)C2(CCCCC2)C1C(N)=O (centres undefined)	-3.6%
CS(=O)(=O)c1ccc2nc(NC(=O)c3cccs3)sc2c1	0.7%
CCN(CC)C(=O)c1sc(NC(=O)c2ccco2)c(C#N)c1C	-5.3%
CCOc1ccc(-c2nc(N)ncc2-c2ccccc2)c(O)c1	0.9%
CCCCCCn1c(SCCC)nc2c1c(=O)[nH]c(=O)n2C	14.2%
N=c1c(C(=O)NCC2CCCO2)cc2c(=O)n3ccccc3nc2n1Cc1cccnc1 (centres undefined)	22.3%
COC(=O)c1ccc(C(NC(=O)OCc2ccccc2)/C(I)=C/[C@@H](C)C(=O)NCC2CC2)cc1 (some centres undefined)	39.7%
Cc1ccc(Cn2nc(C)c(NC(=O)c3cc(-c4ccc5c(c4)OCO5)on3)c2C)cc1	38.4%

Laid out differently: entries from further up
| SMILES | AmpC inh no det |
| --- | --- |
| O=c1c(-c2cccs2)nc2cnc(Oc3ccccc3)nc2n1C1CC1 | 32.5% |
| CC1CC(C)(C)NC(=O)O1 (centres undefined) | 3.4% |

(continued)
SMILES	AmpC inh no det
COc1cccc(NC(=O)c2ccccc2-c2nc(-c3ccccc3)no2)c1	-13.5%
C=CCOc1c(Cl)cc(C2NC(=O)NC(C)=C2C(=O)OC)cc1Cl (centres undefined)	-6.3%
COc1cc(C(O)P(=O)(OC(C)C)c2ccc(N(C)C)cc2)cc(OC)c1OC (centres undefined)	32.6%
Cc1onc(-c2c(F)cccc2Cl)c1C(=O)Nc1cccc2nsnc12	-2.7%
Cn1c(=O)c(C(=O)Nc2ccccn2)c(O)c2ccccc21	93.2%
COc1ccc(Cl)cc1S(=O)(=O)N1CCCC(C(=O)NCC(N)=O)C1 (centres undefined)	14.8%
COc1ccc(S(=O)(=O)Cc2ccc(C(=O)N3CCN(C4CCCCC4)CC3)o2)cc1	89.8%
COc1cc(NC(=O)c2ccco2)c(OC)cc1NC(=O)c1cc(OC)c(OC)c(OC)c1	90.0%
CCOP(=O)(c1ccc(N(C)C)cc1)C(O)c1c(Cl)cccc1Cl (centres undefined)	21.7%
CC(C)C(NS(=O)(=O)c1cccs1)C(=O)NCc1ccc2c(c1)OCO2 (centres undefined)	-5.5%
Cc1ccc(CC2(O)CC(C)N(C)CC2C)c(C)c1 (centres undefined)	-16.8%
COC(=O)c1c(NC(=O)CSc2n[nH]c(N)n2)sc(C)c1C	-4.0%
COc1ccc(S(=O)(=O)N2CCC(C(=O)N3CCCC3)CC2)cc1	5.0%
COC(=O)c1[nH]c2cccc(OC)c2c1NC(=O)CN1CCOCC1	-3.3%
c1ccc(CCc2ccccc2-c2nc(-c3ccccn3)no2)cc1	7.1%
CCCCCOc1ccc(CN2CCOCC2)cc1Cl	103.7%
O=C(CN(Cc1ccc2c(c1)OCO2)C(=O)CNS(=O)(=O)c1ccccc1)NCc1ccco1	3.2%
CCCOc1ccc(C(=O)NCCCn2ccnc2)cc1	-5.2%
Cc1cccc(OCC(=O)Nc2ccc3c(c2)OCCO3)c1	-21.4%
O=C(CCN1C(=O)c2ccccc2C1=O)OCn1nnc2ccccc2c1=O	-0.9%
CC(C)(C)OC(=O)N1CCC(c2c(C(=O)O)cnn2-c2ccccc2Cl)CC1	-3.7%

Source: PubChem (National Center for Advancing Translational Sciences (NCATS))
